Cruzain inh Det = cruzain (T. cruzi) inhibition with detergent; purified cruzain, Z-FR-AMC fluorescence, 0.01% Triton; Potency, µM, for inactives: max response, negative = inhibition, most hits filed as inhibitors; hit rate 0.43% among 200,000; active = well fitted curve in the direction sought with a large enough effect; inconclusive = small, poorly fitted or top-dose-only effect, or another doubt; inactive = no such curve, though single readings can be large; an effect the other way counts as inactive or inconclusive;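 note: plate controls were neutral wells for no effect and buffer without enzyme for full effect; nearly all actives have a fitted effect of over 40% in size; top concentration of the series not given in the record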
Target sequence (P25779 123-467 limits assumed): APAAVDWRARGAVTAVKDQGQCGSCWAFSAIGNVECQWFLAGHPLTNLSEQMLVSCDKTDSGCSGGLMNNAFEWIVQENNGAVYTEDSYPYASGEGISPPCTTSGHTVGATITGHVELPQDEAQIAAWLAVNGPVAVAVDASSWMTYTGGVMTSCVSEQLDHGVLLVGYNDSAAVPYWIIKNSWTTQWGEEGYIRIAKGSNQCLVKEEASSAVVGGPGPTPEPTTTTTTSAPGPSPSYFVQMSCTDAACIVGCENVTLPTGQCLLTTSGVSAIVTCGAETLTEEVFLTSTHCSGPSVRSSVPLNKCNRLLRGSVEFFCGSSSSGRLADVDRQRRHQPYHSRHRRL
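Steps: dispense cruzain (1.5 nM final) in acetate buffer pH 5.5 with DTT and 0.01% Triton X-100; pin-transfer compounds; incubate 15 min RT; add Z-FR-AMC (2 uM final); read fluorescence every 30 s, using the 60 s intensity change.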
Marburg entry inh = blocks Marburg virus binding to or entry into cells | Marburg virus pseudotyped entry inhibition, cell reporter; control for the full effect not named in the record; about a third of the inactives were read at about 46 µM | Potency, µM (series often up to 37.8 µM), for the others: top-dose activity change, negative = inhibition, usual class: inhibitors | hit rate 1.8% among 300,000; active = well fitted inhibition curve with a large enough effect; inconclusive = small, poorly fitted or top-dose-only effect, or effect the other way; inactive = flat fitted curve, though single readings scatter; tested in HEK293 cells; about a fifth of its hits are not listed in these tables; note: % is set by controls: 0 for no effect and ±100 for the full control effect; luciferase read-out
NS1 function inh = inhibitors of influenza NS1 protein function. S. cerevisiae slowed by influenza A NS1, growth recovery by OD600. Potency, µM (series often up to 46.1 µM), for inactives: at the highest dose activity, positive = more growth. hit rate 0.4% among 270,000. AID 2326; note: actives are rising curves; nearly all actives have a fitted effect of over 50% in size
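Read-out: OD600 growth recovery of NS1-expressing budding yeast. Cells grown overnight at 30C in -URA glucose medium, washed, resuspended and diluted 1:100 in 2% galactose assay medium, pH 6.0. Same strain lacking NS1 served as positive control.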
Cruzain noTriton = cruzain (T. cruzi) inhibition without detergent; P25779; purified cruzain, Z-FR-AMC fluorescence, no detergent; Potency, µM, without a hit: max response, negative = inhibition, most hits filed as inhibitors; hit rate 2.3% among 200,000; AID 1476; active = well fitted curve in the direction sought with a large enough effect; inconclusive = small, poorly fitted or top-dose-only effect, or another doubt; inactive = no such curve, though single readings can be large; an effect the other way counts as inactive or inconclusive;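 note: plate controls were enzyme without inhibitor for no effect and buffer without enzyme for full effect; nearly all actives have a fitted effect of over 40% in size; top concentration of the series not given in the record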
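Purified cruzain at 1.5 nM, pre-incubated 15 min with compound at room temperature in 100 mM sodium acetate pH 5.5, 5 mM DTT, 0.00005% Triton X-100. Reaction started with 2 uM Z-FR-AMC; AMC fluorescence increase over 60 s gives rate.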
SARS PLpro yeast = SARS-CoV PLP inhibition in yeast; S. cerevisiae expressing SARS-CoV PLpro, growth rescue; control for the full effect not named in the record; Potency, µM (series often up to 32.9 µM), for the others: top-dose activity, positive = growth rescue; hit rate 0.19% among 330,000; note: 0% is about no effect; nearly all actives have a fitted effect of over 55% in size; growth read by luminescence after 48 h
LASV entry inh = inhibitors of Lassa virus binding or cell entry; AID 540256; hit rate 1.2% among 300,000; Potency, µM (doses to about 37.9 µM), for the others: at the highest dose activity change, negative = inhibition, actives largely listed as inhibitors; Lassa virus pseudotype entry inhibition, cell reporter; control for the full effect not named in the record; active means well fitted inhibition curve with a large enough effect; inconclusive means small, poorly fitted or top-dose-only effect, or effect the other way; inactive means flat fitted curve, though single readings scatter; tested in HEK293 cells; note: % is set by controls: 0 for no effect and ±100 for the full control effect; nearly all actives have a fitted effect of over 50% in size; luciferase read-out
2A StopGo = FMDV 2A StopGo reporter, luciferase signal; human cells with a luciferase reporter of 2A StopGo recoding; control for the full effect not named in the record; Potency, µM (titrated, usually from 57.9 µM), without a hit: top-dose signal change, negative = less light; hit rate 1.2% among 410,000; AID 1159524; active = well fitted falling curve with a large enough effect; inconclusive = small, poorly fitted or top-dose-only effect; inactive = no such curve, though single readings can be large or run the other way; tested in HEK293T cells; note: % is set by controls: 0 for no effect and ±100 for the full control effect; nearly all actives have a fitted effect of over 45% in size; luciferase light after 4 h
RE007 growth inh = less growth of the S. pombe RE007 Vpr strain; hit rate 0.21% among 360,000; S. pombe RE007 Vpr strain, BacTiter-Glo ATP luminescence, 24 h; control for the full effect not named in the record; Potency, µM (highest dose often 92.2 µM), without a hit: at the highest dose activity change, negative = less growth; active = well fitted falling curve with a large enough effect; inconclusive = small, poorly fitted or top-dose-only effect; inactive = no such curve, though single readings can be large or run the other way;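 note: % is set by controls: 0 for no effect and ±100 for the full control effect; nearly all actives have a fitted effect of over 50% in size; the assay follows cell death caused by Vpr and the record does not say whether a fall means rescue or toxicity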
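Fission yeast RE007 carrying one integrated HIV-1 vpr copy, seeded at OD 0.01 in PMG+AL medium with 23 nL pinned compound. Grown 24 h at 30 degrees; viability read by BacTiter-Glo luminescence after 5 min.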
Numbers without * were called inactive; ? = inconclusive; . = no result given; & = joins results of further samples; [ ] = another dose, or the depositor's remark. Unless noted, calls come from the whole dose curve; as a rule, active means well fitted rising curve with a large enough effect; inconclusive means small, poorly fitted or top-dose-only effect; inactive means no such curve, though single readings can be large or run the other way. Potency is the fitted concentration of half-maximal effect.

SMILES	Cruzain inh Det	Marburg entry inh	NS1 function inh	Cruzain noTriton	SARS PLpro yeast	LASV entry inh	2A StopGo	RE007 growth inh
Cc1ccccc1NC(=O)/C(C#N)=C\c1cn(CC(=O)O)c2ccccc12	.	-4%[46.1 µM]	5%	.	0%	25%[46.1 µM]	1%	4%
Cc1cc(NC(=O)COC(=O)[C@H](Cc2c[nH]c3ccccc23)NC(=O)c2ccc(F)cc2)no1	14µM*	27%	-12%	?	-1%	16%	34%[activator]	6%
CN(C)S(=O)(=O)c1cccc(C(=O)N2CCc3ccccc32)c1	0.2%	?	1%	-7%	12%	-4%	0%	11%
CN(C)c1ccc(/C=C2/C(=O)Nc3ccccc32)cc1	-8.2%	2µM*	.	-3%	.	.	-14%	.
CCOc1ccc(Nc2nc(N)c3ccccc3n2)cc1	.	4.5µM*	-12%	.	-23%	?	8.9µM*	?
CCOC(=O)C1CCCN(C(=O)c2ccc(NC(=O)c3nsc4ccccc34)cc2)C1 (configuration not stated)	-3.1%	.	.	7%	.	?	23%	.
Cc1cccc(-c2c(O)cc(=O)[nH]c2Cl)c1	.	4%[46.1 µM]	.	.	1%	?	-12%	7%
Cc1ccc(OC(C)C(=O)N2CCc3ccccc32)cc1 (configuration not stated)	-1.2%	?	4%	-2%	-1%	10%	-8%	2%
CCOc1ccc(S(=O)(=O)N(CC(=O)NCc2cccnc2)c2ccc(C)cc2)cc1	.	?	-6%	.	-5%	?	-13%	17%
O=C(O)[C@@H](c1ccccc1)N1Cc2ccccc2C1=O	-27%	.	-7%	16µM*	-3%	.	-12%	16%
Cc1ccccc1Cn1ccc(NC(=O)c2nn3cccnc3c2Cl)n1	.	-6%[46.1 µM]	-4%	.	-2%	12%[46.1 µM]	0%	-1%
CCn1cc(C(=O)NCc2ccccc2)c2ccccc21	.	-5%[46.1 µM]	.	.	0%	1%[46.1 µM]	-10%	12%
CCOc1ccc2nc(NCCCNC(=O)c3cc(OC)c(OC)c(OC)c3)c(C#N)cc2c1	.	.	-2%	.	1%	.	-13%	5%
Cc1c(C(=O)Nc2cccc(C(F)(F)F)c2)oc2ccc3c(c12)C(=O)CC(C)(C)O3	-3.7%	.	.	8%	.	?	34%[activator]	.
Cn1ccc2c(OCC(=O)Nc3cc(C(F)(F)F)ccc3Cl)cccc2c1=O	-1.0%	.	.	4%	.	-11%[46.1 µM]	?	.
COc1ccc(N(C(=O)c2cccc([N+](=O)[O-])c2)S(=O)(=O)c2ccc3c(c2)n(C)c(=O)n3C)cc1	-3.2%	7%	5%	?	1%	-21%	-1%	-11%
COc1cccc(C(=O)Nc2ccc(S(=O)(=O)N(Cc3ccccc3)c3ccccc3)cc2)c1	0.9%	?	.	-23%	.	-25%[46.1 µM]	0%	.
CCc1ccc(NC(=O)c2cc(S(=O)(=O)N3CCCCCC3)ccc2F)cc1	0.8%	.	.	5%	.	-9%[46.1 µM]	0%	.
Cc1ccc(Cl)c(OCCCN(C)Cc2ccccc2)c1	.	?	-5%	.	-1%	?	11%	-20%
Fc1cccc(Cl)c1CNc1n[nH]c(-c2ccco2)n1	-0.9%	?	.	2%	.	7%[46.1 µM]	67%[activator]	.
CS(=O)(=O)c1ccc(S(=O)CC(=O)Oc2ccc(Cl)cc2)c([N+](=O)[O-])c1 (configuration not stated)	.	11µM*	.	.	0%	?	35µM*	-4%
OC(CNC1CCCC1)COCCOc1ccc(Br)cc1 (configuration not stated)	.	?	-1%	.	-1%	-9%	-24%	4%
COc1ccc(Nc2nc(C)c3ccccc3n2)cc1	-4.6%	?	-16%	-4%	-4%	21%	33%[activator]	-22%
Cn1c(=O)n(CC(N)=O)c2ccccc21	2.0%	14%	5%	-7%	-1%	11%	-4%	6%
O=C(c1ccc(F)cc1)N1CCC(C(=O)N2CCN(S(=O)(=O)c3cccc(F)c3)CC2)CC1	.	14%	.	.	2%	14%	-20%	2%
The listing continues.
SMILES	Cruzain inh Det	Marburg entry inh	NS1 function inh	Cruzain noTriton	SARS PLpro yeast	LASV entry inh	2A StopGo	RE007 growth inh
O=C(O/N=C\c1ccc(N2CCCCC2)c([N+](=O)[O-])c1)c1cccc(C(F)(F)F)c1	-7.2%	4%	17%	-21%	2%	18%	-1%	4%
O=C(NC(=S)NCc1ccccc1)c1ccccc1Br	.	15%	2%	.	-1%	15%	-1%	3%
CCCCNC(=O)N1CCOCCOCCN(C(=O)NCCCC)CCOCC1	-0.7%	28%	0%	-1%	0%	2%	-2%	5%
CSC(=NC#N)N1CCN(c2ccccn2)CC1	.	5%[46.1 µM]	2%	.	1%	9%	11%	7%
COC(C(=O)NC1CCCCCCC1)c1ccccc1 (configuration not stated)	-1.5%	?	2%	1%	-18%	-3%	-4%	-11%
CC(=O)NC12CC3CC(C1)CC(C(=O)NCc1ccc(C)cc1)(C3)C2	.	-11%[46.1 µM]	20%	.	1%	-5%[46.1 µM]	-15%	-11%
O=C(CC1Oc2ccccc2NC1=O)NCCc1ccccc1 (configuration not stated)	6.3%	.	11%	-10%	6%	.	-13%	8%
Cc1cc(C)cc(-n2c(C)cc(C(=S)N3CCOCC3)c2C)c1	-12%	-19%	5%	5%	14µM*	?	?	1%
Cn1cccc1C(=O)OCC(=O)c1cc2ccccc2o1	-7.4%	?	-26%	-24%	4%	?	54%[activator]	?
COc1cc(C2C(C#N)=C(N)Oc3cc(C)n(CC4CCCO4)c(=O)c32)cc2c1OCO2 (configuration not stated)	4.3%	1%	18%	10%	8%	-1%	34%[activator]	23%
O=C(Cc1ccc(S(=O)(=O)N2CCOCC2)s1)NNC(=O)c1ccccc1Cl	.	-1%	.	.	-3%	-3%	1%	22%
O=[N+]([O-])c1ccc(CN2CCOCCOCCN(Cc3ccc([N+](=O)[O-])cc3)CCOCC2)cc1	-4.1%	?	-5%	27%	-24%	?	?	-10%
COc1ccc(-c2nnc(SCC(=O)Nc3sc4c(c3C#N)CCC4)n2CC2CCCO2)cc1 (configuration not stated)	-6.6%	-14%&-14%	6%	5%	-9%	-23%	?	-6%
CC(OC(=O)Cc1n[nH]c(=O)c2ccccc12)C(=O)Nc1cc(Cl)cc(Cl)c1 (configuration not stated)	.	12%[46.1 µM]	.	.	-7%	22%	-10%	1%
O=c1/c(=C\c2ccc3c(c2)OCO3)sc2n1CCCN=2	0.8%	?	-38%	-6%	-5%	1%	-1%	?
O=C(NCCO)C(=O)NCC1OCCCN1S(=O)(=O)c1cc(F)ccc1F (configuration not stated)	.	-23%	5%	.	-1%	8%	-22%	-6%
CCS(=O)(=O)c1ncc(N(Cc2ccccc2)Cc2ccco2)c(C(=O)Nc2ccccc2C)n1	-3.2%	-9%[46.1 µM]	.	-1%	.	0%[46.1 µM]	1%	.
Nc1nc2nonc2nc1N	.	2%[46.1 µM]	6%	.	1%	-1%	-7%	5%
CCN(CC)C(=O)CSc1nc2ccccc2c(=O)n1CCC(=O)NCCc1ccc(OC)c(OC)c1	.	-18%[46.1 µM]	.	.	0%	.	-9%	-17%
O=C(Nc1ccccc1N1CCCCC1)c1ccc(-c2ccc(Cl)cc2)o1	-7.4%	?	3%	-15%	-1%	?	-17%	-3%
Cc1cc(C)cc(OC(=O)C23CCC(C)(C(=O)O2)C3(C)C)c1 (configuration not stated)	.	?	-3%	.	-1%	25%[46.1 µM]	-5%	-17%
Nc1nnc(-c2ccccc2Cl)s1	-5.7%	1%	-20%	-23%	0%	9%	10%	-15%
CCN(Cc1ccccc1)c1c(C(=O)O)cnc2c1cnn2C	.	5%[46.1 µM]	7%	.	-1%	-6%[46.1 µM]	-7%	-3%
Cn1nnnc1SCCCNCc1cccc(OCc2ccc(F)cc2)c1	2.6%	?	.	-4%	.	-6%[46.1 µM]	0%	.
COc1ccc(/C=C2\SC(=O)N(CCC(=O)Nc3ccccc3)C2=O)cc1OC	-0.5%	40%	3%	?	12%	-2%	?	8%
Following part:
SMILES	Cruzain inh Det	Marburg entry inh	NS1 function inh	Cruzain noTriton	SARS PLpro yeast	LASV entry inh	2A StopGo	RE007 growth inh
O=C(CSc1ncnc2scc(-c3ccc(Cl)cc3)c12)NCc1ccc2c(c1)OCO2	-0.7%	-13%&-13%	14%	?	-5%	9%	0%	1%
COc1ccc(OCCC(=O)OCC(=O)NC(=O)NC(C)(C)C)cc1	3.0%	12%	-10%	5%	-6%	?	15%	-9%
O=C(NC(Cc1ccccc1)C(=O)O)/C(=C\c1ccc(F)cc1)NC(=O)c1ccco1 (configuration not stated)	.	-5%[46.1 µM]	13%	.	1%	4%[46.1 µM]	2%	22%
CC(=O)Nc1cccc(NC(=O)CSc2ncc(-c3ccc(Cl)cc3)n2Cc2ccco2)c1	-13%	?	-53%	?	-11%	?	14µM*	5%
COCCNC(=O)C1CCN(S(=O)(=O)c2ccc3c(c2)CCCN3C(C)=O)CC1	-0.4%	.	.	1%	.	-1%[46.1 µM]	-12%	.
Cc1cccc(NC(=O)CNC(=O)c2cccs2)n1	.	?	.	.	0%	-8%	6%	5%
CCN(CC(=O)Nc1ccc(NC(C)=O)cc1)C(=O)/C=C/c1ccc(S(=O)(=O)N2CCCCCC2)cc1	.	1%	-1%	.	4%	-6%	4%	0%
CCCCCCN=C(CC)c1c(O)n(CCCC)c(=O)[nH]c1=O	-13%	?	-27%	19%	-9%	?	?	-1%
O=C(CC1C(=O)NCCN1Cc1ccc(F)cc1Cl)NCc1ccon1 (configuration not stated)	.	.	16%	.	4%	.	?	0%
COc1ccc(-n2cnnc2SCC(=O)Nc2ccccc2F)cc1	.	.	-4%	.	0%	.	-16%	22%
CCOC(=O)N1CCN(C(=O)c2cc3c(=O)[nH]c4ccccc4c3s2)CC1	-2.6%	-4%	-10%	-3%	-11%	14%	8%	4%
CC(C)N(Cc1ccccc1)C(=S)NCc1ccccc1	.	-10%[46.1 µM]	.	.	16%	2%	6%	4%
CN1CCN(/C=N/c2c(C#N)cnn2C)CC1	0.4%	9%	-3%	-7%	1%	8%	12%	?
CN(C)c1cccc2c1c(NC(=O)Nc1ccc(Cl)cc1Cl)nn2C	.	.	5%	.	0%	.	14%	3%
C=C1C(=O)O[C@H]2[C@H]1[C@H](OC(=O)/C(C)=C\C)C[C@]1(CO1)[C@@H]1[C@H](OC(C)=O)C=C(C)[C@]21O	.	?	.	.	.	-24%[46.1 µM]	0%	7%

Screens as filed in PubChem BioAssay.
